HIV Env fusion: HIV envelope-mediated fusion inhibition | HeLa-JRFL Env/CEM21 cell fusion, luciferase | inhibition, % at 12.3 µM | 360,000 tested, 1.1% active | AID 651610;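 active means mean replicate inhibition score of at least 50 and every replicate individually at or above 50; inconclusive means only one of the two criteria met; inactive means mean below 50 and not all replicates reaching 50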;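 further: 0% = plate neutral controls and 100% = maraviroc near 300 nM; one replicate is shown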
CSC inhib: cancer stem cell inhibition | cancer stem cell-like cells viability, luminescence | inhibition, % at 7.5 µM | 300,000 tested, 1.1% active;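 active means mean at 75% or more and at least half the replicates too; inconclusive means mean and replicates disagree; tested in HMLE shEcad cells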;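 further: 0% = median of negative and 100% = median of positive control wells; the first replicate is given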
Rce1 inh: yeast Ras-converting enzyme inhibition; Q03530; yeast membranes, quenched prenylated peptide cleavage fluorescence; calls only; 290,000 tested, 0.27% active; AID 2563;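 active means fall in fluorescence gain of 50% or more versus controls, with final raw signal at or below 3038400; inconclusive means same 50% fall but final raw signal above 3038400; inactive means fall in fluorescence gain under 50%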;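 further: plate controls were neutral control wells for no effect and wells lacking membranes for full effect; tested at 10 µM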
PABP polyA inh: PABP-poly(A) binding inhibition; P11940; PABP-poly(A) RNA binding, fluorescence polarization; inhibition, % at 35 µM; 290,000 tested, 1% active;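 active means 50% or more with normal probe brightness, or confirmed in later tests; inconclusive means above 50% with abnormal brightness, or retests that disagree; inactive means below 50% or failed in later tests; about a fifth of its hits are not listed in these tables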;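 further: calls also rest on retests at 20 µM and on dose response follow-up; controls were probe without protein and protein plus probe with vehicle; some compounds called inactive have numbers as strong as hits; many hits fall short of the cut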
Target sequence (P11940 whole entry, looked up): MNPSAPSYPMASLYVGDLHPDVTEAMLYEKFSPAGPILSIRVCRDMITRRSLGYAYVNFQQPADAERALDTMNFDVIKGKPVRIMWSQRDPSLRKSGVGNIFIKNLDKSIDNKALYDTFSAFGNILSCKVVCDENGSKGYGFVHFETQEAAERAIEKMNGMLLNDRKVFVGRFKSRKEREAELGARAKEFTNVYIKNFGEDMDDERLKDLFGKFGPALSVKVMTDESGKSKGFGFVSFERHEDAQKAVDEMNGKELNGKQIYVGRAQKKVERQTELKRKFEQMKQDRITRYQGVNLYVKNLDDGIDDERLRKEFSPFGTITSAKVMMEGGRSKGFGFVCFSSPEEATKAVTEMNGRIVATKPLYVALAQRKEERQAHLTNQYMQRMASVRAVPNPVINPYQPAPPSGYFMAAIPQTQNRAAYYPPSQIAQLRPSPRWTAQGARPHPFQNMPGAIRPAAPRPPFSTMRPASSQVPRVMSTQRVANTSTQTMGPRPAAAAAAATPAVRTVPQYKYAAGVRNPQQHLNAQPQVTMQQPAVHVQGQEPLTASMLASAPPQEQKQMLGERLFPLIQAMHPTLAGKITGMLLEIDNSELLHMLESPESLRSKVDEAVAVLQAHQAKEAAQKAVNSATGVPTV
eIF4H inh: inhibitors of RNA binding by human eIF4H | Q15056 | eIF4H fluorescence polarization binding assay | inhibition, % at 35 µM | 290,000 tested, 0.94% active | AID 2012;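 active means 50% or more with normal probe brightness, or confirmed in later tests; inconclusive means above 50% with abnormal brightness, or retests that disagree; inactive means below 50% or failed in later tests; about a fifth of its hits are not listed in these tables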;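 further: calls also rest on retests at 20 µM and on dose response follow-up; 0% = protein and probe with vehicle and 100% = probe without protein; strong numbers were not always called active; many hits fall short of the cut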
Yeast UUG start: modulators of start codon recognition fidelity in yeast | 350,000 tested, 0.13% active | activity score, % at 18.7 µM | S. cerevisiae UUG-firefly luciferase reporter, luminescence/redox ratio;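 active means replicate mean at a twofold rise or more, about +100% in these data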;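 further: firefly luciferase made from a UUG start codon reports start codon fidelity; reporter light over untreated wells divided by growth signal over untreated wells; some hits fall short of that in this replicate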
MT1-MMP act inh: blocks activation of human MT1-MMP. P50281. HT1080 RFP-PRO-GFP cells, GFP/RFP ratio fluorescence, overnight; percent of plate control window, DMSO zero. GFP/RFP ratio change, % at 20 µM. 360,000 tested, 0.061% active. AID 651647;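 active means GFP/RFP ratio change of at least 30% with cell ATP level not reduced by more than half and red fluorescence within 50% of control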; further: strong numbers were not always called active
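system = RFP-PRO-GFP reporter HT1080 cells | dosing = 20 µM single dose, 1% DMSO | timing = overnight cell settling, then overnight compound exposure, 37 °C, 5% CO2 | read-out basis = GFP/RFP fluorescence ratio | controls = DMSO and RFP-L50D-GFP cell wells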
MT1-MMP act inh RFP: further read-out of MT1-MMP act inh, marked with its call; RFP signal change, %; measured here: RFP expression control read;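 0 = vehicle wells; hits needed this value within 50% of zero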
Active calls of the source: *; i = inactive; ? = inconclusive; . = not tested or not shown; & = joins results of further samples; [ ] = remark or other dose.

Molecule	HIV Env fusion	Rce1 inh	MT1-MMP act inh RFP	CSC inhib	PABP polyA inh	Yeast UUG start	eIF4H inh	MT1-MMP act inh
COc1ccccc1/C=N/N(C(C)=O)c1nc(-c2ccc(F)cc2)cs1	-84	i	2	40	-7	.	-7	-3
Cc1nc(C)c(C(=O)N(c2ccc(C)c(C)c2)C(C(=O)NCc2ccco2)c2ccccc2)s1 (stereo not drawn)	-28	i	-1	15	1	-20	-7	-4
CC(NC(=O)c1ccco1)C(=O)N1CC=C(c2ccccc2)CC1 (stereo not drawn)	6	.	2	-5	.	-23	.	3
COC(=O)c1ccc(COc2nc(C)cc(C)c2C#N)o1	-1	i	-4	20	2	-16	-2	-6
COc1cc(C(=O)N/N=C/c2sc(=O)n(-c3ccccc3)c2Cl)cc(OC)c1OC	-14	i	-5	-5	-3	-7	-24	-5
COC(=O)CCn1nc(-c2ccc(C)cc2)c2ccccc2c1=O	-5	i	-1	-10	-5	.	-4	1
Cc1ccc(-c2nc3ncccc3o2)cc1NC(=O)c1ccc([N+](=O)[O-])o1	.	i	-15	75	2	-13	-7	2
COC(=O)c1sc2nc3c(c(-c4cccs4)c2c1N)CCCC3	6	i	-5	71	-1	-37	1	-5
CCS(=O)(=O)NC(C)C(c1cccs1)N1CCN(c2ccc(F)cc2)CC1 (stereo not drawn)	26	i	0	-16	39	-14	-6	4
COCCOC(=O)N1CCCCC1c1cc(C(=O)Nc2cccc3c2CCCC3)no1 (stereo not drawn)	38	.	-10	.	.	-6	.	-5
O=C(COC(=O)CSc1ccc([N+](=O)[O-])cc1)NCc1ccco1	.	i	2	-2	.	.	.	-4
COc1ccc(C(=O)O)cc1S(=O)(=O)Nc1cccc(C(F)(F)F)c1	.	i	-1	-5	0	-12	2	0
COc1ccc(-c2csc(/C(C#N)=C/Nc3cc4oc5ccccc5c4cc3OC)n2)cc1	-4	i	5	-4	-2	9	0	2
O=c1c2ccsc2ncn1Cc1cccc(C(F)(F)F)c1	.	i	0	10	4	-10	0	-1
O=C(NC1CCCC1)c1cc(-c2ccccc2Cl)on1	-58	i	0	0	3	-8	-10	1
CN1CCCCC1(C)C(=O)NCc1ccc(F)cc1 (stereo not drawn)	1	.	7	.	.	-29	.	-4
COc1cccc(CNC(=O)CCC2CCCN(C(=O)c3ccoc3)C2)c1 (stereo not drawn)	4	i	2	0	-1	-5	1	1
Cc1ccn(CCC(=O)N2CCc3ccccc32)n1	4	i	-3	-9	4	-4	-5	-9
O=S(=O)(c1ccc(Br)cc1Cl)N1CCN(CCO)CC1	-7	.	1	-2	3	-29	-12	0
CCC(CC)NC(=O)Cn1c(C(C)NC(C)=O)nc2ccccc21 (stereo not drawn)	-3	i	3	9	-8	.	5	1
CCOC(=O)C1(CCOc2ccccc2)CCN(Cc2ccc(OCCO)cc2)CC1	5	i	2	-6	-9	1	-11	5
O=C(NC1CCCC1)c1ccc(CNc2c(N3CCOCC3)c(=O)c2=O)cc1	-7	i	5	7	2	-13	-6	1
Cc1cc(C)n(CC(=O)N/N=C/c2cccs2)n1	-43	i	6	.	0	-15	-5	1
O=C(O)c1cc(CN2CCOCC2)oc1-c1ccccc1	-62	i	1	-6	3	-7	-4	-4
COC(=O)c1cc2sc(Cl)cc2n1CC(=O)NCCC(C)C	-9	i	2	-15	-3	.	-14	2
Cc1ccc(C)c(NC(=O)C(CC(=O)O)Cc2ccccc2)c1 (stereo not drawn)	1	i	-2	-13	18	1	-5	1
O=C(CSc1nc2[nH]ncc2c(=O)n1-c1ccccc1)NCCc1ccccc1	-7	i	4	-11	-1	.	1	2
Cc1cc(-c2ccco2)c(C#N)c2nc3ccccc3n12	.	i	-1	8	88*	-17	88*	-20
Cc1ccc(C(=O)NNC(=O)c2ccccc2O)cc1S(=O)(=O)N1CCCCC1	.	i	-9	21	.	.	.	-1
COc1ccc([N+](=O)[O-])cc1NC(=O)COC(=O)c1ccccc1O	-5	i	4	-9	-6	-15	-8	0
COc1ccc(CCNc2nc(=O)[nH]nc2C)cc1OC	-92	.	5	-3	-1	-9	-10	6
CCC(Sc1nc2sc(C(=O)OC)c(C)c2c(=O)n1N)C(=O)N(CC)CC (stereo not drawn)	?	i	-6	4	-4	11	5	3
O=C(Nc1ccc(F)cc1)c1nc[nH]c1C(=O)Nc1ccccc1[N+](=O)[O-]	6	i	-3	28	0	-9	-4	-14
NC(=O)c1ncn([C@@H]2O[C@H](CNCc3cccc(OC4CCCC4)c3)[C@@H](O)[C@H]2O)n1	-15	.	2	.	.	15	.	-3
O=c1oc(Nc2ccccc2F)nc2ccccc12	.	i	3	-9	10	-7	-1	1
CCOC(=O)c1c(NC(=O)Cc2cccs2)sc(C(=O)N2CCCCC2)c1C	.	.	-7	36	-6	-11	-4	-4
Cc1cc(N2CCCC2)ccc1/C=N/n1cnnc1	24	i	0	4	7	-10	32	-11
CC(C)n1c(Sc2nccn2C)nc2c1c(=O)n(C)c(=O)n2C	.	i	4	-5	-2	.	-3	7
Cc1cccc(N(C)c2ncnc3onc(-c4ccc(F)cc4)c23)c1C	.	i	-7	54	3	-35	-4	-5
CCN(C(=O)CCS(=O)(=O)c1cccc2nonc12)c1ccc(F)cc1	0	i	-2	-4	-8	-1	1	2
CCCc1nc(SCc2ccc(Cl)cc2Cl)n[nH]1	-11	i	-1	-2	-13	.	18	1
COc1ccc(C)cc1NC(=O)CC(O)(C(F)(F)F)C(F)(F)F	-21	i	4	-3	-6	4	-5	-5
CC(C(N)=O)N1C(=O)NC2(CCCc3ccccc32)C1=O (stereo not drawn)	2	i	-1	-10	12	-9	3	-2
CC1CCN(CC(=O)N2CC(=O)Nc3ccccc32)CC1	-14	i	1	1	4	-7	2	1
c1ccc2c(c1)CCN(c1nc(CN3CCOCC3)nc3sc4c(c13)CCCC4)C2	1	i	-4	-34	10	-22	1	-6
O=C(/C=C/c1cccc([N+](=O)[O-])c1)NCCN1C(=O)S/C(=C\c2cccnc2)C1=O	11	i	-9	4	2	.	-2	-4
CC(C)CCN1C(=O)CC(NNC(=O)c2ccc(S(=O)(=O)N3CCCC3)cc2)C1=O (stereo not drawn)	5	.	1	-12	-9	-10	-10	-1
O=C(CCN1CCc2ccccc2C(c2ccccc2)C1)c1ccc2c(c1)OCCO2 (stereo not drawn)	.	i	3	26	-7	.	-10	3
Cc1ccc(C(=O)C(OC(=O)c2c(C)cc(=O)oc2C)c2ccccc2)cc1 (stereo not drawn)	2	i	1	27	5	.	6	2
CN(Cc1ccccc1)C(=O)c1ccc(NC(=O)Cc2ccc(NC(=O)C3CCCN(C(=O)CCc4ccccc4)C3)cc2)cc1 (stereo not drawn)	23	.	-28	.	.	-20	.	5
CCc1[nH]nc2c1C1(CCOC1C)C(C#N)=C(N)O2 (stereo not drawn)	17	i	9	-1	-3	-12	0	11
Cc1ccc(NC(=O)CCc2nnc3ccc(N4CCOCC4)nn23)cc1C	11	i	2	.	-2	-14	-2	-1
CCOc1ccc(OCC)c(NC(=O)C2CCCN(C(=O)c3ccc(Cl)cc3)C2)c1 (stereo not drawn)	3	.	-6	.	.	-14	.	0
CCc1c(C)nc(SCC(=O)N2CCCCC2CC)[nH]c1=O (stereo not drawn)	-6	i	2	4	13	.	16	1
COc1ccc(CNC(=O)c2ccc(CS(=O)(=O)c3ccc(Br)cc3)o2)cc1	-8	i	-10	.	-8	-12	-2	0
C/C(=C1\SC(N2CCOCC2)=NC1=O)c1ccc(C)cc1	.	i	6	-1	-9	9	1	4
C/C(=C\c1ccccc1)C(=O)Nc1ccc(S(=O)(=O)Nc2ncccn2)cc1	10	i	5	-3	-10	.	-5	5
CC(C)OC(=O)c1cc(-c2ccc(C=O)o2)ccc1Cl	-43	i	2	9	-6	.	6	-2
O=C(CN1C(=O)NC2(CCc3ccccc32)C1=O)NCc1ccc(Cl)cc1 (stereo not drawn)	-4	.	-1	-7	.	-12	.	-5
COc1ccccc1CNC(=O)COC(=O)Cc1ccc(Br)cc1	-6	.	0	-6	.	-17	.	-1

Following part.
Molecule	HIV Env fusion	Rce1 inh	MT1-MMP act inh RFP	CSC inhib	PABP polyA inh	Yeast UUG start	eIF4H inh	MT1-MMP act inh
O=C(O)c1nn(Cc2ncc(-c3cccc(Cl)c3)o2)c(=O)c2ccccc12	4	i	1	2	-6	-18	-12	2
CC1=C(C(=O)N2CCOCC2)CC(CC(=O)NC2CCCC2)C(=O)N1Cc1ccc(F)cc1 (stereo not drawn)	8	.	5	.	.	-9	.	-1
Cc1ccc(OCc2nnc(SCC(=O)Nc3cccc4ccccc34)n2-c2ccccc2)cc1	?	i	-14	-2	6	-8	-6	-1
CCCCCc1nnc(NC(=O)c2ccc3nc[nH]c3c2)s1	.	.	-4	4	.	-3	.	0
O=C(Nc1cccc(Cl)c1)Nc1ccccc1C(=O)NCc1ccco1	.	i	-7	4	-6	.	11	-6
CCC(C)(C)C1CCc2c(sc(N)c2C(N)=O)C1 (stereo not drawn)	43	i	-18	-10	-8	-4	3	-8
O=C(C1CC1)N1CCc2cc(S(=O)(=O)NCc3ccccc3)ccc21	-10	i	-1	-1	-4	8	1	6
CCOC(=O)N1CCN(C(=O)/C(=C\c2ccc(SC)cc2)NC(=O)c2ccccc2)CC1	8	.	-2	-6	4	.	-7	4
CCCOC(=O)C1=C(C)NC2=C(C(=O)CCC2)C1c1cccc(OC)c1OC (stereo not drawn)	.	i	2	-2	3	.	-10	3
C[C@H](CO)N1C[C@H](C)[C@@H](CN(C)C(=O)Nc2ccccc2)Oc2c(NS(=O)(=O)c3ccc(F)cc3)cccc2C1=O	-14[16.7 µM]	.	5	8	.	0&2	.	6
O=C(CSc1nnnn1C1CCCCC1)Nc1ccc(F)cc1	1	i	3	-4	2	.	1	5
Cc1ccc(NC(=O)Cc2nn(C)c(=O)c3ccccc23)cc1F	.	i	-28	-10	-3	1	4	-2
O=C(Cc1ccc(Cl)cc1)N/N=C/c1ccc(O)c(O)c1	41	.	-10	.	.	-14	.	3
COc1ccc(C(=O)c2cn[nH]c2-c2cc(Cl)ccc2O)cc1	-73	.	-1	17	-3	-5	-4	9
COc1ccccc1Nc1nc(N)nc(-c2cc3ccccc3o2)n1	-237	i	-11	0	3	2	-11	-4
COc1ccccc1N(C(=O)c1csnn1)C(C(=O)NC1CCCC1)c1ccccc1 (stereo not drawn)	3	i	5	.	16	-7	-5	-1
CCc1ccc(NC2=CC(=O)CC(c3ccco3)C2)cc1 (stereo not drawn)	-50	i	-4	0	17	-9	12	-1
Cc1ccnc(NS(=O)(=O)c2ccc(NS(=O)(=O)Cc3ccccc3)cc2)n1	.	i	5	-6	6	-5	2	10
Cc1ccc(-c2nnc(Nc3ccccc3)c3ccccc23)cc1S(=O)(=O)NCC1CCCO1 (stereo not drawn)	-57	i	-3	-9	-5	58	-8	8
COc1ccc(NC(=O)COC(=O)Cn2cnc3ccccc32)cc1	.	.	1	-15	.	-9	.	3
COc1ccc(NC(=O)CSc2nc(N)c(-c3ccccc3)c(=O)[nH]2)cc1	.	i	-1	3	-3	.	-2	1
CC(N)C12CC3CC(C1)CC(C(C)N)(C3)C2 (stereo not drawn)	-28	i	1	-4	25	-9	4	0

Bioassay records deposited in PubChem BioAssay by several laboratories.
